Rce1 inhib – inhibitors of yeast Ras-converting enzyme. actives 0.27% (n = 290,000). AID 2563. yeast membranes, quenched prenylated peptide cleavage fluorescence. Q03530. calls only;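 active means fall in fluorescence gain of 50% or more versus controls, with final raw signal at or below 3038400; inconclusive means same 50% fall but final raw signal above 3038400; inactive means fall in fluorescence gain under 50%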;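 further: plate controls were neutral control wells for no effect and wells lacking membranes for full effect; tested at 10 µM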
Target sequence (Q03530 whole entry, looked up): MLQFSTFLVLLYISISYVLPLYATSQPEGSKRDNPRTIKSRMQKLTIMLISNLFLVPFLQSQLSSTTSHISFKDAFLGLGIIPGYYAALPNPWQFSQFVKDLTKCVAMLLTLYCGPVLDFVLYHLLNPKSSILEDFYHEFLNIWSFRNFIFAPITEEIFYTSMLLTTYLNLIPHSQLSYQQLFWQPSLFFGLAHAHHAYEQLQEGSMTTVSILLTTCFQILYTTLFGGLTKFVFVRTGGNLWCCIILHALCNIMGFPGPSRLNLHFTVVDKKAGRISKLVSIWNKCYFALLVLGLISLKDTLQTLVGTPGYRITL
Env fusion inh – blocks HIV Env-driven cell-cell fusion; HeLa-JRFL Env/CEM21 cell fusion, luciferase; inhibition, % at 12.3 µM; actives 1.1% (n = 360,000);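 active means mean replicate inhibition score of at least 50 and every replicate individually at or above 50; inconclusive means only one of the two criteria met; inactive means mean below 50 and not all replicates reaching 50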;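 further: 0% = plate neutral controls and 100% = maraviroc near 300 nM; one replicate is shown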
MT1-MMP act inh – MT1-MMP (human) activation inhibition; HT1080 RFP-PRO-GFP cells, GFP/RFP ratio fluorescence, overnight; percent of plate control window, DMSO zero; AID 651647; GFP/RFP ratio change, % at 20 µM; actives 0.061% (n = 360,000);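 active means GFP/RFP ratio change of at least 30% with cell ATP level not reduced by more than half and red fluorescence within 50% of control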; further: strong numbers were not always called active
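Assay system: HT1080 cells carrying an RFP-PRO-GFP reporter | Dosing: Single dose of 20 µM compound, 1% DMSO final | Incubation: Cells overnight before dosing, compound overnight, 37 °C, 5% CO2 | Evaluation: GFP/RFP fluorescence ratio | Control set: DMSO and RFP-L50D-GFP cell wells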
CSC inhib – cancer stem cell inhibition; cancer stem cell-like cells viability, luminescence; inhibition, % at 7.5 µM; actives 1.1% (n = 300,000); AID 2717;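 active means mean at 75% or more and at least half the replicates too; inconclusive means mean and replicates disagree; tested in HMLE shEcad cells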;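 further: 0% = median of negative and 100% = median of positive control wells; the first replicate is given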
PABP FP inh – PABP-poly(A) binding inhibition; actives 1% (n = 290,000); PABP-poly(A) RNA binding, fluorescence polarization; inhibition, % at 35 µM;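 active means 50% or more with normal probe brightness, or confirmed in later tests; inconclusive means above 50% with abnormal brightness, or retests that disagree; inactive means below 50% or failed in later tests; about a fifth of its hits are not listed in these tables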;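 further: calls also rest on retests at 20 µM and on dose response follow-up; controls were probe without protein and protein plus probe with vehicle; some compounds called inactive have numbers as strong as hits; many hits fall short of the cut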
Target sequence (P11940 whole entry, looked up): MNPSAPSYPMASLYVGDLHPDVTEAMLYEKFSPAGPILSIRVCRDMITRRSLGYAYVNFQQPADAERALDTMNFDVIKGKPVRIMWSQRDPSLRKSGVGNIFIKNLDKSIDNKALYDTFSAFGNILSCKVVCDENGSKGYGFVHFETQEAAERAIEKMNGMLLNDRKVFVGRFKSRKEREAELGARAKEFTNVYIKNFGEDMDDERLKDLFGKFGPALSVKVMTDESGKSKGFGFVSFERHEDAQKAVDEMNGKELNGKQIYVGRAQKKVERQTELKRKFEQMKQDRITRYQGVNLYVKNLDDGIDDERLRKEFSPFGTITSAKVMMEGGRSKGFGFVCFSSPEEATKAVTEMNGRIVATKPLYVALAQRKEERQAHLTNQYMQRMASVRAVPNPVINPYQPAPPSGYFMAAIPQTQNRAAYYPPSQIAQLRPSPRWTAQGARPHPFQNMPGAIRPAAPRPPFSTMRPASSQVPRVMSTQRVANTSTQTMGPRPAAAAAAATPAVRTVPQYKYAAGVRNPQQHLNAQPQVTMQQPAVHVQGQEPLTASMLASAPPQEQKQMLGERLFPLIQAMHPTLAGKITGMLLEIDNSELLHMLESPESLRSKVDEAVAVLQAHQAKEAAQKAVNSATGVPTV
UUG fidelity – yeast start codon fidelity modulation. actives 0.13% (n = 350,000). activity score, % at 18.7 µM. S. cerevisiae UUG-firefly luciferase reporter, luminescence/redox ratio;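 active means replicate mean at a twofold rise or more, about +100% in these data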;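 further: firefly luciferase made from a UUG start codon reports start codon fidelity; reporter light over untreated wells divided by growth signal over untreated wells; some hits fall short of that in this replicate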
eIF4H inh – inhibitors of RNA binding by human eIF4H. actives 0.94% (n = 290,000). AID 2012. inhibition, % at 35 µM. eIF4H fluorescence polarization binding assay. Q15056;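 active means 50% or more with normal probe brightness, or confirmed in later tests; inconclusive means above 50% with abnormal brightness, or retests that disagree; inactive means below 50% or failed in later tests; about a fifth of its hits are not listed in these tables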;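 further: calls also rest on retests at 20 µM and on dose response follow-up; 0% = protein and probe with vehicle and 100% = probe without protein; strong numbers were not always called active; many hits fall short of the cut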
eIF4H inh retest – recorded beside eIF4H inh, whose call it bears; inhibition, %; compound at 20 µM; confirmation average;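 mean of two retest wells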
PABP FP inh retest – recorded beside PABP FP inh, whose call it bears; inhibition, %; compound at 20 µM; confirmation repeats;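 mean of two retest wells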
MT1-MMP act inh RFP – second read-out of MT1-MMP act inh, no call of its own (marks repeat the call); RFP signal change, %; measured here: RFP expression control read;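 0 = vehicle wells; hits needed this value within 50% of zero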
An asterisk follows results filed as active; i = inactive; ? = inconclusive; / = not tested or not shown; & = joins results of further samples. Not all compounds are listed; count on the stated rates, not on these rows.

SMILES | Rce1 inhib | Env fusion inh | MT1-MMP act inh | MT1-MMP act inh RFP | CSC inhib | PABP FP inh | UUG fidelity | eIF4H inh | others
CC1=NN(Cc2c[nH]c3ccccc23)C(C)(C)C1 | / | 9 | 1 | 8 | -16 | 9 | / | 1
C=CCn1c(O)c(C(C)=O)c(=O)[nH]c1=O (tested in a mixture with another compound) | i | -10 | -4 | 1 | -11 | -11 | / | 14
O=C1NCN(c2ccccc2)C12CCN(C(c1cccc3ccccc13)c1nnnn1C1CCCCC1)CC2 (centres undefined) | / | -25 | -1 | -15 | / | / | -17 | /
CN(C)C(=O)Oc1ccc([N+](=O)[O-])cc1 | i | -8 | 0 | 3 | -15 | -2 | / | 0
O=C(COc1ccc2ccccc2c1)N1CCN(Cc2ccncc2)CC1 | i | / | 4 | -1 | 5 | -2 | / | -8
COc1cccc(-n2c(/C=C/c3ccc(O)c(O)c3)nc3ccccc3c2=O)c1 | i | -1 | -110 | 3 | -9 | 8 | / | 14
O=c1[nH]c(=O)n(Cc2ccco2)c(O)c1C=NCc1cccs1 | i | -13 | -1 | 3 | -19 | 1 | -36 | 0
CCCCn1c(C)c(C(=O)OCC)c2c(CN3CCOCC3)c(O)ccc21 | i | / | 18 | 0 | -22 | 4 | -8 | 2
COC(=O)C1=C(c2ccccc2OCc2ccccc2)C[C@@H]2CC[C@H]1N2C(=O)NCc1cccc(C(F)(F)F)c1 | / | 22 | -9 | -6 | 19 | / | -19 | /
CCC(C)n1c(O)c(C=NC(C)c2ccccc2)c(=O)[nH]c1=S (centres undefined) | i | 3 | 2 | 2 | -6 | 12 | / | 15

A run of entries from further up, for reference:
SMILES | Rce1 inhib | Env fusion inh | MT1-MMP act inh | MT1-MMP act inh RFP | CSC inhib | PABP FP inh | UUG fidelity | eIF4H inh | others
CC1=NN(Cc2c[nH]c3ccccc23)C(C)(C)C1 | / | 9 | 1 | 8 | -16 | 9 | / | 1
C=CCn1c(O)c(C(C)=O)c(=O)[nH]c1=O (tested in a mixture with another compound) | i | -10 | -4 | 1 | -11 | -11 | / | 14
O=C1NCN(c2ccccc2)C12CCN(C(c1cccc3ccccc13)c1nnnn1C1CCCCC1)CC2 (centres undefined) | / | -25 | -1 | -15 | / | / | -17 | /
CN(C)C(=O)Oc1ccc([N+](=O)[O-])cc1 | i | -8 | 0 | 3 | -15 | -2 | / | 0
O=C(COc1ccc2ccccc2c1)N1CCN(Cc2ccncc2)CC1 | i | / | 4 | -1 | 5 | -2 | / | -8
COc1cccc(-n2c(/C=C/c3ccc(O)c(O)c3)nc3ccccc3c2=O)c1 | i | -1 | -110 | 3 | -9 | 8 | / | 14
O=c1[nH]c(=O)n(Cc2ccco2)c(O)c1C=NCc1cccs1 | i | -13 | -1 | 3 | -19 | 1 | -36 | 0

(listing goes on)
SMILES | Rce1 inhib | Env fusion inh | MT1-MMP act inh | MT1-MMP act inh RFP | CSC inhib | PABP FP inh | UUG fidelity | eIF4H inh | others
CCC1(OC(=O)CN)C(=O)OCc2c1cc1n(c2=O)Cc2cc3ccccc3nc2-1 (centres undefined) | ? | / | -4 | -6 | 55 | -4 | -5 | 6
C[C@H](CO)N1C[C@H](C)[C@H](CN(C)C(=O)Oc2ccccc2)OCc2cnnn2CCCC1=O | / | -54 | 8 | 10 | / | / | 12&-7 | /
CC(C)Cc1[nH]c(=O)c(C#N)c2c1CCC2 | i | -112 | 3 | 3 | -1 | 26 | -4 | 11
CCCCCn1c(=O)c(C(=O)Nc2ncccc2C)c(O)c2ccccc21 | i | 38 | -4 | -6 | -3 | 10 | -10 | 5
CCN1c2nc3ccccn3c(=O)c2CC2(C(=O)N(C)C(=O)N(C)C2=O)C1C (centres undefined) | i | 4 | 4 | 4 | -2 | -13 | -6 | -2
COC(=O)C1=Nc2ccccc2/C1=C\c1c(O)n(-c2ccc(Br)cc2)c(=O)[nH]c1=O | / | 14 | -7 | -1 | 9 | 3 | / | -23
COC(=O)C1=C(c2ccc(F)cc2F)C[C@@H]2CC[C@H]1N2C(=O)NCC1CC1 | / | / | -1 | -1 | -11 | / | -20 | /
COC(=O)C1=C(c2cccc(OC)c2OC)C[C@@H]2CC[C@H]1N2C(=O)NCc1ccc(F)cc1 | i | -3 | 4 | 3 | -11 | / | 0 | /
CCOc1cccc(N2C(=O)/C(=C/c3ccco3)C(=O)NC2=S)c1 | i | 6 | -4 | 5 | 9 | 10 | 10 | 43
Cc1ccc(C)c(-n2c(C)nc3ccccc3c2=O)c1 | i | 6 | -1 | 2 | -9 | 3 | -3 | 0

Entries listed so far containing sulfur, in the order listed:
SMILES | Rce1 inhib | Env fusion inh | MT1-MMP act inh | MT1-MMP act inh RFP | CSC inhib | PABP FP inh | UUG fidelity | eIF4H inh | others
O=c1[nH]c(=O)n(Cc2ccco2)c(O)c1C=NCc1cccs1 | i | -13 | -1 | 3 | -19 | 1 | -36 | 0
CCC(C)n1c(O)c(C=NC(C)c2ccccc2)c(=O)[nH]c1=S (centres undefined) | i | 3 | 2 | 2 | -6 | 12 | / | 15
CCOc1cccc(N2C(=O)/C(=C/c3ccco3)C(=O)NC2=S)c1 | i | 6 | -4 | 5 | 9 | 10 | 10 | 43

Continued.
SMILES | Rce1 inhib | Env fusion inh | MT1-MMP act inh | MT1-MMP act inh RFP | CSC inhib | PABP FP inh | UUG fidelity | eIF4H inh | others
CCCCn1c(O)c(C=NCCCN(CC)CC)c(=O)[nH]c1=O | i | / | -4 | -3 | -1 | -4 | -14 | 2
COc1cccc(N2C(=O)NC(=O)/C(=C\c3ccc([N+](=O)[O-])s3)C2=O)c1 | / | -3 | -36 | 17 | / | -6.1* | / | 74* | eIF4H inh retest=101*;PABP FP inh retest=95*
Cc1cccc(N2C(=O)NC(=O)C3(Cc4cc(C)ccc4N(C)C3)C2=O)c1 (centres undefined) | i | / | 0 | 5 | -22 | 9 | 3 | -1
N=Cc1c(O)n(-c2cccc(Cl)c2)c(=O)[nH]c1=O | i | -4 | -4 | 13 | -13 | -2 | -12 | 0
CN(C)C(=O)Oc1ccc(C(=O)c2ccccc2)cc1 | i | / | 6 | 3 | -5 | 1 | -21 | -5
CN1CCN(Cc2cc3c(cc2[N+](=O)[O-])OCO3)CC1 | i | -1 | -1 | 3 | -21 | 2 | -9 | 10
C[C@]12CCCCC1=CC(=O)C1C2CC[C@@]2(C)C1C[C@@H](F)[C@@H]2O (some centres undefined) | / | -21 | 2 | -1 | / | / | 3 | /
COc1ccc(CN2CCCC(C(=O)c3cccc(Cl)c3)C2)cc1 (centres undefined) | i | -7 | -1 | 2 | 19 | 6 | -27 | 3
CNS(=O)(=O)c1ccc(N=Cc2c(O)n(-c3ccccc3)c(=O)[nH]c2=O)cc1 | i | 14 | -9 | 3 | -10 | 2 | / | ?
Cc1cc(OCC(=O)NCC(O)c2ccccc2)c2c3c(c(=O)oc2c1)CCC3 (centres undefined) | i | -40 | 0 | -4 | -6 | 5 | -6 | 6
C[Se]C[C@@H](N)C(=O)O | / | / | -6 | 3 | 3 | / | -13 | /
Cc1cc(/C=C2\C(=O)NC(=O)N(c3ccc(Cl)cc3)C2=O)c(C)n1-c1sc2c(c1C#N)CCCC2 | i | 17 | -13 | 2 | / | -8 | / | ?
CCOC(=O)C1=CC(=C2C(=O)N(CC)C(=S)N(CC)C2=O)c2ccccc2O1 | i | 6 | / | / | 10 | 2 | / | 11
O=c1c2ccccc2nc(/C=C/c2ccc(O)c(O)c2)n1-c1ccccc1 | i | -38 | -72 | -7 | 15 | -9 | -4 | 1
CC1(C)NCCN2C(=O)CSC21 (centres undefined) | i | / | -4 | -1 | 4 | -2 | 4 | 2
CN1C(=O)C(=Cc2ccc(OCCN(C)c3ccccn3)cc2)C(=O)N(C)C1=O | i | -18 | -3 | -3 | 7 | 2 | / | 14
Oc1cc2c(cc1CN1CCN(c3ccccc3)CC1)CCC2 | i | -6 | 0 | 0 | -12 | / | -11 | /
O=C(O)CCn1cc(C=C2C(=O)NC(=S)NC2=O)c(-c2cc3ccccc3oc2=O)n1 | i | 2 | -4 | 5 | / | 8 | / | -12
Cc1ccc(C)c(OCc2cc(C(=O)N3C[C@H]4C[C@@H](C3)c3cccc(=O)n3C4)no2)c1 | i | -2 | -6 | -5 | -1 | 6 | -2 | -1
O=C(c1cc([N+](=O)[O-])ccc1N1CCNCC1)N1CCOCC1 | i | -5 | 3 | 5 | -15 | 0 | 0 | -9
COc1ccc(NC(=O)CN2C3CCC2CC(O)(c2cccnc2)C3)cc1OC (centres undefined) | i | / | -3 | 0 | 7 | 4 | -13 | 5
Cc1cccc(N2C(=O)NC(=O)/C(=C\c3cnc(-c4ccccc4)nc3)C2=O)c1 | i | 28 | -5 | 0 | -8 | 12 | 6 | 14
CCOP(=S)(NN(Cc1ccccc1)C(=O)c1ccccc1)OCC | i | -4 | -4 | -3 | -11 | 1 | / | -1
CCn1c(=O)n(CC(=O)N2CCC3(CC2)OCCO3)c(=O)c2ccccc21 | i | / | 2 | 9 | -12 | 1 | 0 | -9
COc1ccc(Br)cc1CNCCc1cccc(Cl)c1 | i | 12 | -2 | 1 | 35 | 3 | 1 | 1
CN1CCN(c2ccc([N+](=O)[O-])c(N3CCCCC3)c2)CC1 | i | -6 | -8 | 0 | 36 | -14 | -7 | -15
COc1ccc(S(=O)(=O)NC(CC(=O)N2CCC3(CC2)OCCO3)c2ccco2)cc1 (centres undefined) | i | / | -3 | -1 | -6 | 11 | -20 | -1
CC(=O)Cc1ccc(OC(C)C)cc1 | i | 14 | 1 | 1 | 3 | -3 | / | ?
O=[N+]([O-])c1ccc(N2CCCC2)c(F)c1Br | i | -29 | 0 | 0 | -3 | -3 | -22 | 3
NC(C(=O)O)c1cc(=O)[nH]o1 (centres undefined) | / | -9 | -5 | 0 | -1 | / | -19 | /
O=C(c1ccc2c(c1)N(Cc1ccc(F)cc1)CCS2)N1CCC2(CC1)OCCO2 | i | 40 | -2 | -3 | 16 | 10 | 10 | -5
COc1ccc(-[n+]2c(-c3ccccc3)cc(-c3ccccc3)cc2-c2ccccc2)cc1 | i | -5 | / | / | 42 | / | / | /
O=C(CNC(=O)OCc1ccccc1)NCC(=O)Nc1ccc(Br)cc1C(=O)c1ccccc1 | i | 10 | 0 | 4 | -12 | 8 | / | -11
COc1ccc(-n2nnnc2C(c2ccccc2)N2CCC3(CC2)C(=O)NCN3c2ccccc2)cc1 (centres undefined) | / | -237 | 0 | -4 | / | / | -3 | /
CS(=O)(=O)N1Cc2cnnn2-c2ccccc2C1C#N (centres undefined) | / | 21 | 2 | 5 | / | / | -20 | /
CCCCCn1c(N)c(C(=O)NCc2cccs2)c2nc3ccccc3nc21 | i | 9 | / | / | 32 | 10 | / | -6
COC(=O)C1=C(c2ccc(OCc3ccccc3)cc2)C[C@@H]2CC[C@H]1N2C(=O)NCc1ccccc1OC | / | -160 | -3 | -17 | / | / | -4 | /
N#CC1=C(N)Oc2cc(O)ccc2C1c1ccc2c(c1)OCO2 (centres undefined) | i | -11 | -4 | 0 | -8 | 12 | -9 | -2
N[C@H](CO)Cc1ccccc1 | / | 9 | 2 | 10 | / | / | -11 | /
CSC1=NP(=S)(SC)N2CCCC2=C1C#N (centres undefined) | i | -9 | 3 | 4 | -13 | -4 | / | -4
O=C(Nc1ccccc1)N1CC2CC(C1)c1cccc(=O)n1C2 (centres undefined) | i | 13 | 1 | 3 | 5 | -6 | -32 | 7

High-throughput results from PubChem BioAssay.
